Assay outcomes deposited in PubChem by several laboratories.
eIF4H inh = inhibitors of RNA binding by human eIF4H. AID 2012. Q15056. hit rate 0.94% among 290,000. eIF4H fluorescence polarization binding assay. inhibition, % at 35 µM;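 active = 50% or more with normal probe brightness, or confirmed in later tests; inconclusive = above 50% with abnormal brightness, or retests that disagree; inactive = below 50% or failed in later tests; about a fifth of its hits are not listed in these tables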;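 also: calls also rest on retests at 20 µM and on dose response follow-up; 0% = protein and probe with vehicle and 100% = probe without protein; strong numbers were not always called active; many hits fall short of the cut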
CSC inhib = cancer stem cell inhibition; cancer stem cell-like cells viability, luminescence; inhibition, % at 7.5 µM; hit rate 1.1% among 300,000; AID 2717;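 active = mean at 75% or more and at least half the replicates too; inconclusive = mean and replicates disagree; tested in HMLE shEcad cells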;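 also: 0% = median of negative and 100% = median of positive control wells; the first replicate is given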
Yeast UUG start = yeast start codon fidelity modulation; S. cerevisiae UUG-firefly luciferase reporter, luminescence/redox ratio; activity score, % at 18.7 µM; hit rate 0.13% among 350,000; AID 602363;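 active = replicate mean at a twofold rise or more, about +100% in these data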;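 also: firefly luciferase made from a UUG start codon reports start codon fidelity; reporter light over untreated wells divided by growth signal over untreated wells; some hits fall short of that in this replicate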
Rce1 inhib = blocks yeast Ras-converting enzyme; yeast membranes, quenched prenylated peptide cleavage fluorescence; Q03530; calls only; hit rate 0.27% among 290,000; AID 2563;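 active = fall in fluorescence gain of 50% or more versus controls, with final raw signal at or below 3038400; inconclusive = same 50% fall but final raw signal above 3038400; inactive = fall in fluorescence gain under 50%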;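 also: plate controls were neutral control wells for no effect and wells lacking membranes for full effect; tested at 10 µM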
Target sequence (Q03530 whole entry, looked up): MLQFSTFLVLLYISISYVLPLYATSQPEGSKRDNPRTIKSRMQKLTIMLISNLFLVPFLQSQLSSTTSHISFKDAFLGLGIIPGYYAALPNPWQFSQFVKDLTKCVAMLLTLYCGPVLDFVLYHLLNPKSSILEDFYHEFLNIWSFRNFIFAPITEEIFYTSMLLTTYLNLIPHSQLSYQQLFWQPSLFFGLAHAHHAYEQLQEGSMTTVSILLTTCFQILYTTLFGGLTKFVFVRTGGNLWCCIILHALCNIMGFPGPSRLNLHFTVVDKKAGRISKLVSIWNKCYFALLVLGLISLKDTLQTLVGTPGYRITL
Env fusion inh = HIV envelope-mediated fusion inhibition | HeLa-JRFL Env/CEM21 cell fusion, luciferase | hit rate 1.1% among 360,000 | inhibition, % at 12.3 µM;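 active = mean replicate inhibition score of at least 50 and every replicate individually at or above 50; inconclusive = only one of the two criteria met; inactive = mean below 50 and not all replicates reaching 50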;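 also: 0% = plate neutral controls and 100% = maraviroc near 300 nM; one replicate is shown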
PABP FP inh = blocks human PABP binding to poly(A) RNA; fluorescence polarization; inhibition, % at 35 µM; hit rate 1% among 290,000;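 active = 50% or more with normal probe brightness, or confirmed in later tests; inconclusive = above 50% with abnormal brightness, or retests that disagree; inactive = below 50% or failed in later tests; about a fifth of its hits are not listed in these tables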;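 also: calls also rest on retests at 20 µM and on dose response follow-up; controls were probe without protein and protein plus probe with vehicle; some compounds called inactive have numbers as strong as hits; many hits fall short of the cut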
Target sequence (P11940 whole entry, looked up): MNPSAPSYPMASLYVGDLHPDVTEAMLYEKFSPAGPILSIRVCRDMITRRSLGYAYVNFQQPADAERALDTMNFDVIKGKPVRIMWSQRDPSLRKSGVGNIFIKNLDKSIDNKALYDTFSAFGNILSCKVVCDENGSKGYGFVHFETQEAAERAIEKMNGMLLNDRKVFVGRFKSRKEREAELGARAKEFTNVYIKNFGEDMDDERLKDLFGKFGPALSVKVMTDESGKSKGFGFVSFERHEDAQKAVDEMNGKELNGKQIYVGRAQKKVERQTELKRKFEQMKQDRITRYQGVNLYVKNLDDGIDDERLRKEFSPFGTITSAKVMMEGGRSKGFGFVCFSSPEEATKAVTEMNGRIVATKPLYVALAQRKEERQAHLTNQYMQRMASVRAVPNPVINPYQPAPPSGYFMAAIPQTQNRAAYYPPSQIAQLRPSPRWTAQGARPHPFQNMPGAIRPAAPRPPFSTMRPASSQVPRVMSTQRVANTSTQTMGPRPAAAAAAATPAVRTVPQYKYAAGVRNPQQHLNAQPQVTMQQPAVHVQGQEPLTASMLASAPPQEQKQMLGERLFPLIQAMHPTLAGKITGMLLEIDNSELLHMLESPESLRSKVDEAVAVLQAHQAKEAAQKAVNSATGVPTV
MT1-MMP act inh = MT1-MMP (human) activation inhibition; P50281; HT1080 RFP-PRO-GFP cells, GFP/RFP ratio fluorescence, overnight; percent of plate control window, DMSO zero; GFP/RFP ratio change, % at 20 µM; hit rate 0.061% among 360,000; AID 651647;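 active = GFP/RFP ratio change of at least 30% with cell ATP level not reduced by more than half and red fluorescence within 50% of control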; also: strong numbers were not always called active
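Compound: 20 µM single dose, 1% DMSO / System: HT1080 RFP-PRO-GFP cells / Controls: DMSO and RFP-L50D-GFP cell wells / Read-out basis: GFP/RFP fluorescence ratio / Schedule: overnight compound exposure at 37 °C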
eIF4H inh retest = recorded beside eIF4H inh, whose call it bears; inhibition, %; compound at 20 µM; confirmation average;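 mean of two retest wells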
PABP FP inh retest = further read-out of PABP FP inh, marked with its call; inhibition, %; compound at 20 µM; confirmation repeats;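 mean of two retest wells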
MT1-MMP act inh RFP = further read-out of MT1-MMP act inh, marked with its call; RFP signal change, %; measured here: RFP expression control read;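 0 = vehicle wells; hits needed this value within 50% of zero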
* hit, by the source's call; i = inactive; ? = inconclusive; / = no result given; & = joins results of further samples. An excerpt; rates above refer to the full screens.

The first 3 records (preview)
SMILES	eIF4H inh	CSC inhib	Yeast UUG start	Rce1 inhib	Env fusion inh	PABP FP inh	MT1-MMP act inh	MT1-MMP act inh RFP	others
CCN(CC)c1ccc(/C=C(\C#N)C(N)=O)cc1	-7	/	/	/	-26	-11	-11	-2
COc1cc(C2C(C#N)=C(N)OC3=C2C(=O)CC(C)(C)C3)c([N+](=O)[O-])cc1OC (configuration not stated)	?	-9	13	i	55	?	-56	0
CC(=O)C1=CCC(c2ccc(Cl)cc2)N(S(=O)(=O)c2ccc(C)cc2)C1 (configuration not stated)	/	/	-9&-12	/	-16	/	-1&5	-6&-3

The list itself, from the first entry:
SMILES	eIF4H inh	CSC inhib	Yeast UUG start	Rce1 inhib	Env fusion inh	PABP FP inh	MT1-MMP act inh	MT1-MMP act inh RFP	others
CCN(CC)c1ccc(/C=C(\C#N)C(N)=O)cc1	-7	/	/	/	-26	-11	-11	-2
COc1cc(C2C(C#N)=C(N)OC3=C2C(=O)CC(C)(C)C3)c([N+](=O)[O-])cc1OC (configuration not stated)	?	-9	13	i	55	?	-56	0
CC(=O)C1=CCC(c2ccc(Cl)cc2)N(S(=O)(=O)c2ccc(C)cc2)C1 (configuration not stated)	/	/	-9&-12	/	-16	/	-1&5	-6&-3
Cc1ccc(N2CCN(C(=O)CNS(=O)(=O)c3ccc(Br)s3)CC2C)cc1 (configuration not stated)	-5	-3	/	i	/	-3	1	-6
CCCCc1ccc(C2C(C#N)=C(N)SC(N)=C2C#N)s1	?	41	/	/	/	?	/	/
CCSc1nnc(NC(=O)CSc2nc3c(c(=O)n2-c2ccccc2)SCC3)s1	0	15	-12	i	1	-13	-3	-1
CC1(C)Cc2ccccc2-c2nnc(-c3ccccc3)n21	3	-16	-22	i	-24	4	-1	-3
O=C(Oc1ccccc1C(=O)N1CCOCC1)c1ccc(Br)cc1	-13	-2	-24	i	17	-12	5	6
COc1ccc(OC)c2[nH]c(=O)c(CCNC(=O)c3ccc(S(=O)(=O)N(C)C)cc3)cc12	-9	-1	/	i	/	-3	-2	2
Cc1nc2ccccc2c(=O)n1/N=C/c1ccccc1F	0	-2	-8	i	-20	-7	2	0
O=C(Nc1cc(N2CCOCC2)ncn1)NC1(C(F)(F)F)Oc2ccccc2O1	4	37	-9	i	?	56	/	/	eIF4H inh retest=0;PABP FP inh retest=22
CCc1ccc(C(O)c2ncc(-c3ccc4ccccc4c3)[nH]2)cc1 (configuration not stated)	/	/	-5	/	-54	/	2	-3
c1ccc(-n2c(Cc3cn4ccsc4n3)nnc2N2CCOCC2)cc1	-9	-9	-9	i	4	-2	-4	2
O=S(=O)(NCCc1c[nH]c2ccccc12)c1ccc(F)cc1	/	/	5	/	3	/	5	6
CCCCN1C(=O)C(=O)N(CC(=O)Nc2sc(C)c(CC)c2C(=O)OCC)C1=O	/	-3	0	i	17	/	2	-2
COc1ccc(C(=O)O)cc1NC(=S)NC(=O)C(c1ccccc1)c1ccccc1	-7	-14	12	i	-1	3	2	0
CN(CC1COc2ccccc2O1)C(=S)Nc1ccccc1F (configuration not stated)	-5	-2	/	i	-1	0	5	1
CCC(NC(=O)Cc1c(C)c2cc3c(cc2oc1=O)OC(C)(C)CC3)C(=O)O (configuration not stated)	-4	-13	-1	?	-7	6	2	4
O=C(CSS(=O)(=O)O)N1CCN(C(=O)c2ccoc2)CC1	-10	11	/	i	0	-7	-1	2
Brc1ccc(-c2cn3nc4c(nc3n2)CCCC4)cc1	2	-2	/	i	/	22	-3	2
NC(Cc1ccc(C(F)(F)F)cc1)c1csc(Nc2ccc(C(=O)c3ccccc3)cc2)n1 (configuration not stated)	/	/	-29	/	-9	/	-13	-13
O=c1c2cnn(-c3ccccc3)c2nc(-c2ccco2)n1-c1ccccc1	4	18	-16	i	46	10	-13	-22
O=C(C[C@@H]1C/C=C\CCCC(=O)OC[C@@H]2CCCN2C1=O)N[C@@H](CO)Cc1ccccc1	/	/	14	/	?	/	4	6
C=COCCn1c(-c2nonc2N)nc2ccccc21	-10	-4	-14	i	/	-3	-4	-2
O=C(COc1ncnc2sccc12)N1CCN(c2ccccc2)CC1	4	-5	-1	i	-35	0	-3	3

New compounds follow:
SMILES	eIF4H inh	CSC inhib	Yeast UUG start	Rce1 inhib	Env fusion inh	PABP FP inh	MT1-MMP act inh	MT1-MMP act inh RFP	others
COc1ccc(C(=O)Nn2cnc3ccccc3c2=O)cc1[N+](=O)[O-]	-8	-17	/	i	13	0	3	-3
COc1ccc(CNC(=O)C(=O)NCC2CCCN2S(=O)(=O)c2ccccc2)cc1 (configuration not stated)	/	/	11	i	5	/	-2	-4
CCc1ccc(N=C2NC(=O)/C(=C/c3ccc(OCC(=O)O)c(OC)c3)S2)cc1	-2	/	-13	i	-5	23	-3	1
COc1ccccc1/C=C/C1(C(=O)NC2CCCC2)CC(=O)N1c1ccc(F)cc1 (configuration not stated)	-8	?	-13	i	131*	-5	4	-13
CN1C(=O)CSC1=NCC12CC3CC(CC(C3)C1)C2	2	28	-4	i	/	4	-5	-9
Cc1ccccc1N(CC(=O)N1CCCCCC1)S(C)(=O)=O	-11	-12	-4	i	0	-6	-2	1
Cc1nn(CC(=O)NCCc2ccco2)c(=O)c2nn(-c3ccccc3)c(C)c12	60	-7	-22	i	4	8	1	-1	eIF4H inh retest=32;PABP FP inh retest=36
CC(=O)N1CCN=C1SCc1cccc(Cl)c1	-4	25	-23	i	12	-8	6	4
CC(=O)CCC1CC(c2ccc(Cl)cc2)=NO1 (configuration not stated)	/	-8	-45	i	/	/	3	5
COc1ccc(Br)cc1/C=N/NC(=O)c1ccc2nc[nH]c2c1	-8	10	-27	i	4	-6	-4	-7
COc1ccccc1CN1C(=S)SC(C)(C)C1NO (configuration not stated)	-20	-5	-5	i	-65	-9	-4	-7
CC(=O)CC(CC(=O)NC1CCCCC1)c1ccccc1 (configuration not stated)	/	-6	/	i	-12	/	-1	0
COc1ccc(NC(=O)COc2cc(C)cc(C)c2)cc1S(=O)(=O)N1CCCCC1	/	3	-16	i	61*	/	-12	-22
CC(=O)c1ccc(S(=O)(=O)N(C)CC(=O)Nc2cccc(S(=O)(=O)N3CCCC3)c2)cc1	/	/	6	/	33	/	7	-8
Cc1cccc(NC(=O)/C(=C\c2ccco2)NC(=O)c2ccccc2)c1	58*	1	/	i	-38	52*	-8	-4
Cc1ccccc1COc1ccc(/C=C(\C#N)C(N)=O)cc1	-2	2	-7	i	-4	21	1	1
C/C(=N\O)C(=O)NCc1ccncc1	-10	-9	0	i	/	-3	-3	4
N#Cc1nc(COc2ccc(Cl)cc2)oc1N1CCCC1	1	12	-5	i	15	0	-7	-1
C#CCCc1cocc1/C=[N+](\[O-])c1ccc(C(=O)OCC)cc1	/	13	-14	/	-14	/	-1	6
CN(CCCNC(=O)c1cc2c(Cl)nc3ccccc3c2s1)Cc1ccccc1	14	38	-31	i	14	23	0	-1
Nc1nc(Cl)cc(N2CCCC2)n1	-13	1	-12	i	2	-2	-3	-8
COc1ccc(N(Cc2cc(=O)[nH]c3ccccc23)C(=O)C(C)C)cc1	-6	1	-10	i	14	0	-6	-2
CCCn1c(SCC(=O)N2CCCCC2)nnc1-c1ccco1	-2	-4	-18	i	-13	-1	4	3
Cc1cc(C(C)(C)C)cc(S(=O)(=O)NCCc2ccncc2)c1C	-4	-1	-5	i	39	-11	-2	-2
CC(=O)Nc1ccc(NC(=O)C(C)OC(=O)CNC(=O)c2ccc(-c3ccccc3)cc2)cc1 (configuration not stated)	/	-6	-15	i	-50	/	4	0

Going on with the list.
SMILES	eIF4H inh	CSC inhib	Yeast UUG start	Rce1 inhib	Env fusion inh	PABP FP inh	MT1-MMP act inh	MT1-MMP act inh RFP	others
COc1ccc(C)cc1S(=O)(=O)NCc1ccccn1	/	/	-11	/	-22	/	-1	-2
CCOC(=O)c1ccc(S(=O)(=O)N(CCO)Cc2cc3cc(OC)c(OC)cc3[nH]c2=O)cc1	-7	-18	/	i	-2	1	-3	1
Cc1c(C=NNC(=O)c2ccc(Br)cc2)c2ccccn2c1C(=O)c1ccncc1	/	0	-7	/	4	/	0	1
CC(NC(=O)CCNS(=O)(=O)c1ccc2c(c1)oc(=O)n2C)c1ccccc1 (configuration not stated)	-8	-17	-2	i	-9	1	0	-1
Cn1c(Sc2ccc(Br)cc2)c(C=O)c2ccccc21	-2	-13	2	i	/	0	-17	-14
CCN(CC)C(=O)c1cccc(-c2csc(C(O)c3ccc(OC)cc3)n2)c1 (configuration not stated)	/	/	-8	/	-4	/	1	-15
NS(=O)(=O)c1cccc(NC(=O)COC(=O)Cn2cc(C(F)(F)F)ccc2=O)c1	/	-1	-21	/	/	/	-4	-1
CCC(=O)NC(c1ccc(OC)cc1)c1cc(Cl)c2cccnc2c1O (configuration not stated)	2	119*	/	i	46	0	-3	-5
Cc1cc(/C=C2/NC(=O)N(Cc3ccccc3F)C2=O)c(C)n1-c1ccccn1	67	-9	/	i	-20	-7	-6	1	eIF4H inh retest=-6;PABP FP inh retest=-3
CCOC(=O)C(=O)N(C)c1c(CC)nc2c(OCc3cccc(Cl)c3)cccn12	/	/	-23	/	-24	/	1	-3
COCCCNC(=O)c1ccccc1Sc1ccc(NC(C)=O)nc1	2	12	/	i	14	3	2	8
Clc1ccc(-c2nc(N3CCCCC3)nc3ccccc23)cc1	85	1	-30	/	-15	-2	-3	-2	eIF4H inh retest=11;PABP FP inh retest=1
O=C(COC(=O)/C=C/c1ccc(F)cc1)Nc1ccccc1-c1ccccc1	-4	0	-19	i	14	1	2	-5
O=c1[nH]c2cc3c(cc2cc1CN(Cc1ccccc1)Cc1nnnn1Cc1ccco1)OCCO3	39	/	-16	i	/	60	-25	9	eIF4H inh retest=38;PABP FP inh retest=39
CC1CC(C)CN(C(=O)CSCC(=O)O)C1 (configuration not stated)	5	-4	-10	i	-5	-6	-2	1
COc1ccc(Cl)cc1C(=O)NCc1ccc2c(c1)OCO2	-2	-12	-11	i	-250	-14	0	-3
COCCN(Cc1ccccc1)C(=O)Cc1ccc(OC)c(S(=O)(=O)N2CCOCC2)c1	/	-3	-4	i	/	/	-2	2
O=C1C=C(NCc2ccccc2)CCC1	0	-7	-12	i	6	-9	-1	3
CCC(C(=O)Nc1ncccn1)(C(F)(F)F)C(F)(F)F	4	0	3	i	/	1	2	5
CC(=O)N(C)C1(c2nnnn2CCOC(=O)Nc2ccc(Cl)cc2)CCCCC1	4	6	9	i	/	4	9	4
CC(C)OCCCNC(=O)c1cc(S(=O)(=O)N2CCc3ccccc32)cn1C	-7	-3	-2	i	4	0	1	-7
CC(NCC(=O)Nc1ccccc1C(=O)NC1CC1)c1cccs1 (configuration not stated)	/	-16	-11	/	10	/	2	1
COC(=O)c1ccc(CSc2nc(-c3ccccc3)cs2)o1	-2	19	-14	/	/	-2	2	4
CC(C)c1ccc(NC2CCCN(C(=O)c3ccsc3)C2)cc1 (configuration not stated)	47	33	-8	i	4	-2	-2	-7
O=S1(=O)CCC(N2CCOCC2)C1 (configuration not stated)	-5	2	-14	i	-27	5	3	2
O=c1c2ccccc2nnn1CSc1nnc2sc3ccccc3n12	4	-5	/	i	/	8	/	/
COc1ccc(OC)c(S(=O)(=O)N(C)CC(=O)N2CCN(c3ccc(F)cc3)CC2)c1	4	-13	-1	i	/	0	-4	2
CCOC(=O)N1CCC(N2C(=O)c3ccc(C(=O)NCCC(C)C)cc3C2=O)CC1	3	17	-17	i	-9	16	-1	1
